High-throughput results as filed in PubChem.
WNV protease inh – blocks West Nile virus NS2B-NS3 protease activity; WNV NS2B-NS3 protease, fluorogenic substrate Ex360/Em465; stronger effect = lower value; AID 577; 0.18% of 65,000 active; P06935; z-score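 (tested at a level between 10 and 100 µM)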;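 active = z-score at -3 or under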;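 also: score is relative to mean and spread of the compound wells of a plate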
Target sequence (P06935 1371-1501 limits assumed): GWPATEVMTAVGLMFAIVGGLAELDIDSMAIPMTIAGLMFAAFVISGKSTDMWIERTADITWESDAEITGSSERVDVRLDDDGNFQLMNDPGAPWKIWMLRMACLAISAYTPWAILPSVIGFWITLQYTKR
Target sequence (P06935 1502-1679 limits assumed): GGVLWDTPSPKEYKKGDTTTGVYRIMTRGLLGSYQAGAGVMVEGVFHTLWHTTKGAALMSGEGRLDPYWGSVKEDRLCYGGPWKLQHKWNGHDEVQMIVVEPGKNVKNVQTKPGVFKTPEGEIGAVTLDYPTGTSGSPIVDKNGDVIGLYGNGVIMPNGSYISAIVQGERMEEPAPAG
MT1-MMP promoter – MT1-MMP gene expression reporter suppression – cell-based, luciferase reporter, luminescence (AID 618); calls from a first round at 10 µM; hits with a dose series show EC50 in µM; 0.62% of 87,000 active; MT1-MMP promoter luciferase reporter cells, luminescence;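 active = over half of the reporter light lost at 10 µM or EC50 under 50 µM; inactive = the rest and hits that failed the dose series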;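 also: actives suppress MT1-MMP promoter-driven transcription so potencies describe inhibitors; HT1080 fibrosarcoma cells; overnight exposure; toxic or luciferase-blocking compounds were not removed from the actives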
* marks the source's active call; other numbers are inactive results; i = inactive; · = not tested or not shown. Only part of the results is shown, so the mix of outcomes need not match the whole.

[1] Cn1c(=O)cc(OCC(=O)N2CCN(Cc3ccc4c(c3)OCO4)CC2)c2ccccc21
- WNV protease inh = -0.41
- MT1-MMP promoter = ·

[2] Cc1c2cnn(CC(=O)N3CCC4(CC3)OCCO4)c(=O)c2c(C)n1Cc1ccc(F)cc1
- WNV protease inh = 0.93
- MT1-MMP promoter = ·

[3] CCOc1ccc(-n2c(CC)nc3ccccc3c2=O)cc1
- WNV protease inh = 0.83
- MT1-MMP promoter = ·

[4] COc1ccccc1N1CCN(Cc2ccccc2Cl)CC1
- WNV protease inh = 0.09
- MT1-MMP promoter = ·

[5] Cc1ccccc1NC1=NCC(C)S1 (centres undefined)
- WNV protease inh = 0.25
- MT1-MMP promoter = ·

[6] CCOC(=O)CN1C(=O)C2(C(C#N)=C(N)Oc3ccccc32)C(C(=O)OC)=C1C (centres undefined)
- WNV protease inh = 0.56
- MT1-MMP promoter = ·

[7] CC(CO)(CO)N=Cc1c(O)n(-c2cccc3ccccc23)c(=O)[nH]c1=O
- WNV protease inh = 0.76
- MT1-MMP promoter = ·

[8] COC(=O)[C@H]1C[C@@H]1[C@H](NP(=O)(c1ccccc1)c1ccccc1)c1ccccc1
- WNV protease inh = ·
- MT1-MMP promoter = i

[9] COC(=O)[C@@H]1C[C@@]2(O)[C@@H](O)[C@@H](O)[C@@H](O)C[C@H]2N1Cc1cccnc1
- WNV protease inh = ·
- MT1-MMP promoter = i

[10] CCc1c(C)nc(N)nc1N1N=C1SC
- WNV protease inh = ·
- MT1-MMP promoter = i

2 entries drawn at random from the list so far, as already listed:
[9] COC(=O)[C@@H]1C[C@@]2(O)[C@@H](O)[C@@H](O)[C@@H](O)C[C@H]2N1Cc1cccnc1
- WNV protease inh = ·
- MT1-MMP promoter = i

[1] Cn1c(=O)cc(OCC(=O)N2CCN(Cc3ccc4c(c3)OCO4)CC2)c2ccccc21
- WNV protease inh = -0.41
- MT1-MMP promoter = ·

In a second layout: entries from further up
entry | Compound | WNV protease inh | MT1-MMP promoter
7 | CC(CO)(CO)N=Cc1c(O)n(-c2cccc3ccccc23)c(=O)[nH]c1=O | 0.76 | ·
5 | Cc1ccccc1NC1=NCC(C)S1 (centres undefined) | 0.25 | ·
1 | Cn1c(=O)cc(OCC(=O)N2CCN(Cc3ccc4c(c3)OCO4)CC2)c2ccccc21 | -0.41 | ·
6 | CCOC(=O)CN1C(=O)C2(C(C#N)=C(N)Oc3ccccc32)C(C(=O)OC)=C1C (centres undefined) | 0.56 | ·
3 | CCOc1ccc(-n2c(CC)nc3ccccc3c2=O)cc1 | 0.83 | ·

(further entries)
[11] CCOP(=O)(OCC)C(CC)N1CCOCC1 (centres undefined)
- WNV protease inh = ·
- MT1-MMP promoter = i

[12] Clc1cccc(Cl)c1CN1CCN(c2ccccc2)CC1
- WNV protease inh = ·
- MT1-MMP promoter = i

[13] O=C(Oc1ccc([N+](=O)[O-])cc1)N1CCC(N2CCCCC2)CC1
- WNV protease inh = ·
- MT1-MMP promoter = i

[14] CCCC[C@@H]1C[C@H]1[C@@H](NP(=O)(c1ccccc1)c1ccccc1)c1ccc(Cl)cc1
- WNV protease inh = ·
- MT1-MMP promoter = i

[15] Cc1ccccc1Cc1c(C)nc2nc(SCC(=O)N3CCC4(CC3)OCCO4)nn2c1C
- WNV protease inh = ·
- MT1-MMP promoter = i

[16] O=C1CC(N2CC=C(c3ccc(F)cc3)CC2)C(=O)N1c1ccc(F)cc1 (centres undefined)
- WNV protease inh = ·
- MT1-MMP promoter = i

[17] O=C(c1cccn2c(=O)c3cc(Br)ccc3nc12)N1CCC2(CC1)OCCO2
- WNV protease inh = ·
- MT1-MMP promoter = i

[18] CCOc1cccc(CNC2CN3CCC2CC3)c1 (centres undefined)
- WNV protease inh = ·
- MT1-MMP promoter = i

[19] CCN1CCN(C(=O)Cc2coc3ccc4ccccc4c23)CC1
- WNV protease inh = ·
- MT1-MMP promoter = i

[20] CCCCCCCC(=O)NC(Oc1ccccc1[N+](=O)[O-])C(Cl)(Cl)Cl (centres undefined)
- WNV protease inh = ·
- MT1-MMP promoter = i
